RGS16-Gao: RGS16-Galphao interaction regulator (human); bead-based flow cytometry RGS16-Galphao binding, fluorescence; actives lie on both sides; binding response (% of control), % at 10 µM; actives 0.38% (n = 220,000); O15492+P09471;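 active means below 25% or above 175%, edge rows of some plates excepted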;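 further: Galphao activated by GDP with aluminum fluoride before binding; 100% = wells without compound and 0% = beads without RGS; some results beyond the cut were filed as inactive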
GALR2 ag: agonists of human galanin receptor 2 (GALR2). activation, %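 (tested at 5 µM)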. GALR2-expressing cells, agonist activation read-out. O43603. actives 0.48% (n = 140,000);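 active means above mean plus 3 SD of all compounds, about 5% in these data, not always enough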;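 further: 0% = vehicle buffer wells and 100% = reference agonist at full effect; tested in CHO reporter cells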
HSV replic up: increases HSV replication in cells. HSV replication augmentation in cells, fold increase. maximum fold increase. actives 0.005% (n = 220,000). AID 1956;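 active means peak rise of 1.5-fold or more in the series; tested in PC3 cells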;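 further: first round at 10 µM; read as green reporter fluorescence; hits show the peak of a series up to 25 µM; 1 = signal of infected wells without compound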
INS promoter inh: TRM-6 insulin promoter activity inhibition | actives 0.9% (n = 130,000) | inhibition, % at 2 µM | TRM-6 cells (human fetal islet line), insulin promoter-eGFP reporter, imaging; reporter expression induced with tamoxifen;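 active means inhibition above the mean plus 3 SD, with well images judged a real hit on visual review, cut at about 60% in these data, passing the limit was not always enough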
PKD1 inh: blocks activity of human protein kinase D1; PKD1 kinase fluorescence polarization assay; Q15139; actives 0.056% (n = 200,000); inhibition, %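 (about 10 µM by stock and volumes)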;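 active means inhibition of 50% or more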;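 further: controls were vehicle for no effect and a reference inhibitor for full effect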
Target sequence (Q15139 whole entry, looked up): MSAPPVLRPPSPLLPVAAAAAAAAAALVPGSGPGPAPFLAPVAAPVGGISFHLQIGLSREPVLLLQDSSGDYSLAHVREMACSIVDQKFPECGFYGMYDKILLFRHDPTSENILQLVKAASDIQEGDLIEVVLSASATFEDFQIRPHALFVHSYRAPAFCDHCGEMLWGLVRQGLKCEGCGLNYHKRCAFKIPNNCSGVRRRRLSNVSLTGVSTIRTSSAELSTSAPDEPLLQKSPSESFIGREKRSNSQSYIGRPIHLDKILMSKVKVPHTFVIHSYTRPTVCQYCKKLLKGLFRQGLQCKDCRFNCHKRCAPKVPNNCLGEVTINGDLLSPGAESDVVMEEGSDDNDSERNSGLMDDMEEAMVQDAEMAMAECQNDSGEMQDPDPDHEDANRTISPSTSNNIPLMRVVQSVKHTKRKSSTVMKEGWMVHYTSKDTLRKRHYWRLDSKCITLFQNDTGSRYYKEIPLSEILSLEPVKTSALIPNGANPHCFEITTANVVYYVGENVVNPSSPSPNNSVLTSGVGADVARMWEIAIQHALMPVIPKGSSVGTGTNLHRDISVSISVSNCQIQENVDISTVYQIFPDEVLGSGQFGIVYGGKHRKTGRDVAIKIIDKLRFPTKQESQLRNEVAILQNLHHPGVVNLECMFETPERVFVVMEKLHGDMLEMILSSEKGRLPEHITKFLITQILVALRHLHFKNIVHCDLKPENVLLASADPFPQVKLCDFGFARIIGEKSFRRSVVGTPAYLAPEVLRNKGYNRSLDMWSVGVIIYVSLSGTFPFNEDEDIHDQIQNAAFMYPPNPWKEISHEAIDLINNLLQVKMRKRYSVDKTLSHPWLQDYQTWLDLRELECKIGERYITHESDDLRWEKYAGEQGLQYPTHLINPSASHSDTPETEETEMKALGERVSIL
INS promoter inh cell count: recorded beside INS promoter inh, whose call it bears; normalized cell count, %; measured here: cell count, toxicity; reference of the scale not given here;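 cells exposed to compound for 48 h; stained nuclei by imaging scaled within each plate; lower means fewer cells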
HSV replic up primary fold: also measured in HSV replic up; calls as there; fold increase; compound at 10 µM; measured here: primary screen fold increase 10 uM; tested in PC3 cells;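 GFP signal in the first replicate; 1 = infected wells without compound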
Starred values were filed as active, the others as inactive; i = inactive; / = no result given. Rows are unselected; any-hit rate near 1.3%.

Below each SMILES: RGS16-Gao	GALR2 ag	HSV replic up	HSV replic up primary fold	INS promoter inh	INS promoter inh cell count	PKD1 inh
Cc1cc(C(C#N)c2ccccc2F)n2ncnc2n1 (centres undefined)
  111	/	i	0.83	/	/	-9
CC(C)NS(=O)(=O)c1ccc(CCC(=O)Nc2cc(Cl)ccc2Oc2ccccc2)cc1
  97	-2.6	i	0.91	10	60	-4
Cc1cccc(N=C2NC(=O)c3cc([N+](=O)[O-])ccc32)c1
  89	/	i	0.96	18	54	-5
O=C(Nc1cccc([N+](=O)[O-])c1)C1CC(=O)N(Cc2ccccc2)C1 (centres undefined)
  100	/	i	1	/	/	3
Cc1ccnn1CCSCC(=O)O
  214	-4.2	i	1.1	0	112	-4
CS(=O)(=O)Nc1ccc(C(=O)N2CCCC2)cc1
  101	-2.1	i	1.1	-63	131	3
CC(C)c1cc(CN2CCN(CCC#N)CC2)cc(C(C)C)c1O
  102	-1.4	i	1	-12	95	-2
O=C(NC(=S)N(CCO)Cc1ccccc1)c1cc(Br)ccc1Cl
  98	/	i	0.92	11	122	-3
COc1ccc(Nc2nc(N)nc(CSc3nnc(N)s3)n2)cc1
  106	-1.8	i	0.86	-39	108	6
Oc1ccc(NCc2cccc(OCc3ccc(F)cc3)c2)cc1
  88	/	i	0.97	/	/	3
CN(C(=S)NC(=O)/C=C/c1ccc(F)cc1)C1CCCCC1
  107	-1.8	i	0.9	14	71	-1
Nc1ncc(Br)cc1S(=O)(=O)NCCC(=O)N1CCN(c2ccccn2)CC1
  104	-2.3	i	0.96	-93	57	-2
COc1cccc(/C=C2\SC(=S)N(C(C(=O)O)c3ccccc3)C2=O)c1OC (centres undefined)
  99	/	i	1.2	/	/	/
Cn1nc(OC(=O)Nc2ccccc2)cc1C(F)(F)F
  101	-1.0	i	1.1	22	63	-2
CCOC(=O)CSc1nc(N)nc(C)c1Cl
  102	/	i	0.94	7	116	-4
CC(C)C[C@H](NC(=O)[C@@H]1O[C@H]1C(=O)O)C(=O)NCCCCN=C(N)N
  94	-0.8	i	0.83	38	139	-7
COc1cc(Cl)c(C)cc1NC(=O)CSc1ccccc1
  38	-0.5	i	1.1	-63	105	5
CC(=O)N1CCN(Cc2nc3cc(Cl)ccc3c(=O)[nH]2)CC1
  98	/	i	1.1	/	/	-3
Cc1nc2sc(C(c3cccc(F)c3)N3CCCC(C)C3)c(O)n2n1 (centres undefined)
  96	-0.9	i	0.99	/	/	-5
CCOC(=O)N1CCN(C(=O)C(NC(=O)c2ccc(CC)cc2)C(C)C)CC1 (centres undefined)
  101	0.3	i	0.87	-12	101	-2
O=C(O)COc1ccc(/C=C/c2ccc3cccc([N+](=O)[O-])c3n2)cc1
  97	0.4	i	0.9	19	145	-2
Cc1ccc(SCC(=O)Nc2ccc(N3CCOCC3)cc2)c(C)c1
  95	/	i	1.1	-64	60	-5
Cn1cc([N+](=O)[O-])c(C(=O)N(Cc2ccccc2)Cc2ccccc2)n1
  105	-0.4	i	0.95	38	132	-9
CCOC(=O)c1c(C)[nH]c(C(=O)COC(=O)CSC)c1C
  91	-1.6	i	1	19	120	1
COc1ccc(OC)c(NC(=O)C23CCC(C)(C(=O)C2)C3(C)C)c1 (centres undefined)
  106	-1.3	i	0.95	-331	102	-5
COc1ccccc1C1=NOC(C)(c2sc(-c3ccc(Cl)cc3)nc2C)C1 (centres undefined)
  96	/	i	0.8	/	/	/
COc1ccc(/C(O)=C2\C(=O)C(=O)N(CCN(C)C)C2c2cccc(OC)c2OC)cc1 (centres undefined)
  93	-1.6	i	1.1	17	101	-9
O=C(CC(O)(c1ccccc1)C(F)(F)C(F)F)c1cccs1 (centres undefined)
  96	-2.6	i	0.88	24	102	-8
CCn1c(SCC(=O)Nc2cccc(F)c2)nc2c(c1=O)SC(C)C2 (centres undefined)
  103	0.9	i	0.94	/	/	8
CCCn1nnnc1SCC(=O)NNC(=O)C1CCCCC1
  99	-3.7	/	/	7	162	-14
CCS(=O)(=O)N1CCC(C(=O)NCc2cccc(OC)c2)CC1
  33	-3.1	/	/	/	/	6
Cc1ccc(C)c(NC(=S)NNC(=O)c2csc(C(C)C)c2)c1
  104	-0.9	i	0.69	-54	117	5
CCNc1nc(OC)nc(Oc2ccc(=O)n(-c3ccccc3)n2)n1
  94	-0.5	i	1	38	102	-6
Cc1ccc(SCCC(=O)Nc2cccnc2)cc1
  112	/	i	0.95	48	26	2
COc1ccccc1/C=N/NC(=O)c1ccc(Cn2nc([N+](=O)[O-])cc2C)cc1
  102	-0.5	i	0.9	31	160	-7
Cc1ccc(-c2nn(Cc3ccccc3)cc2/C=C/C(=O)O)cc1C
  104	-1.2	i	0.97	29	93	-6
O=C(Cn1c2ccc(F)cc2c2nc3n(c(=O)c21)CCS3)Nc1ccccc1F
  107	/	i	0.96	-47	91	-2
O=C(Nc1nnc(-c2ccncc2)o1)c1ccc(Br)s1
  148	/	i	0.88	-17	72	-1
O=C(/C=C1\SC(=O)NC1=O)Nc1ccc(F)cc1
  105	/	i	0.99	/	/	-5
CC1(C)CC(=O)C2=C(C1)N(Cc1ccco1)C(=O)C2(NC(=O)C1CCCCC1)C(F)(F)F (centres undefined)
  103	-1.9	i	0.85	69	50	-6
Cc1nn(C)c(C)c1/C=N/NC(=O)c1csc2ccccc12
  103	-1.6	i	0.8	-11	109	-7
Cc1ccc2[nH]c3c(=O)n(CCN4CCNCC4)cnc3c2c1
  111	-1.8	i	0.92	46	98	9
FC(F)(F)c1cc(Cl)c2nnc(C(F)(F)Cl)n2c1
  102	/	i	1	/	/	-4
COc1ccc(Cl)cc1NC(=O)/C=C/C(=O)O
  102	/	i	1	/	/	/
O=C(COC(=O)c1ccccc1NC(=O)c1ccco1)NCC1CCCCC1
  132	-1.8	i	0.99	/	/	-5
Cc1ccc(C(=O)Nc2nc3n(n2)C(c2ccccc2)CC(=O)N3)cc1 (centres undefined)
  100	/	i	0.95	/	/	/
CCCn1c(SCC(=O)Nc2cccc(S(=O)(=O)NC3=NCCCCC3)c2)nc2ccccc2c1=O
  94	/	i	0.89	-156	99	-11
Cc1nc(C(=O)NNC(=O)c2ccc(Cl)cc2)cs1
  101	/	i	0.95	/	/	/
Cc1cc(NC(=O)Cn2cnc3c2c(=O)n(C)c(=O)n3C)n(-c2ccccc2)n1
  101	-1.1	i	0.87	-30	99	-7
NC(=S)N(c1ccccc1)c1ccccc1
  102	/	i	0.91	21	128	-5
N#Cc1ccc(C23CC4(C2)[C@H](CN(Cc2ccc(C(F)(F)F)cc2)[C@@H]4c2ccccc2)C3c2ccccc2)cc1 (some centres undefined)
  99	/	i	0.81	/	/	/
O=C(NCCCN1CCN(c2ccccc2F)CC1)C1CCC(=O)N1C1CCCCC1 (centres undefined)
  102	-0.9	i	0.9	8	117	3
O=C(O)c1cccc(NC(=O)c2ccc(Cl)c(S(=O)(=O)N3CCCCCC3)c2)c1
  106	/	i	0.86	41	102	-8
O=C(CCCO)CCCCCCCCC[C@H]1N[C@H](CO)[C@@H](O)[C@@H]1O
  105	-1.2	i	0.96	-55	130	5
CCC(=O)Nc1ccc(S(=O)(=O)NCC2CCCO2)cc1 (centres undefined)
  106	-0.9	i	0.96	4	90	-6
Cc1cc2[nH]cnc2c([N+](=O)[O-])c1C
  104	/	i	0.95	/	/	13
CC1CC(CCN)(c2ccccc2)C(C)CN1C (centres undefined)
  96	/	i	1.2	/	/	/
O=C1C2C3C=CC(C2C(=O)N1C1CCCCC1)C1C(=O)N(C2CCCCC2)C(=O)C31 (centres undefined)
  103	-0.8	i	1	/	/	1
CCN1CCN(C(=O)C(C)Nc2ccc(OC)cc2OC)CC1 (centres undefined)
  94	/	i	0.95	/	/	-7
Cc1ccc(C)n1-c1ccc(C(=O)NCc2ccncc2)cc1
  97	/	i	0.71	/	/	-1

(more compounds)
Below each SMILES: RGS16-Gao	GALR2 ag	HSV replic up	HSV replic up primary fold	INS promoter inh	INS promoter inh cell count	PKD1 inh
COc1ccc(NC(=S)N2C3CCC2CC(NC(=O)NC24CC5CC(CC(C5)C2)C4)C3)c(OC)c1 (centres undefined)
  101	-3.9	i	0.88	50	100	-18
Cc1ccc2ncccc2c1N
  102	/	i	1	/	/	-4
Cc1ccc(-n2c(-c3ccncc3)n[nH]c2=S)cc1C
  14	/	i	0.95	/	/	-3
COc1cc(NC(=O)COC(=O)c2nc3nc(C)cc(C)n3n2)cc(OC)c1
  102	-0.9	i	0.96	14	65	-1
Cc1ccc(S(=O)(=O)C(C#N)c2nc3ccccc3nc2OCCO)cc1 (centres undefined)
  99	/	i	0.98	/	/	-4
Cc1onc(-c2ccccc2)c1NC(=O)N(CCC(=O)O)Cc1ccccc1
  98	/	i	0.82	/	/	/
N/C(=N\N=C\c1cccs1)SC1CC(=O)N(c2cccc([N+](=O)[O-])c2)C1=O (centres undefined)
  100	/	i	0.83	/	/	6
COc1ccccc1N1CCN(C2=CC(=O)CCC2)CC1
  93	-2.2	i	1.1	7	130	13
CN(C)S(=O)(=O)c1cccc(NC(=O)CN2C(=O)NC(CCc3ccccc3)C2=O)c1 (centres undefined)
  100	/	i	0.98	/	/	2
CCOc1ccccc1NS(=O)(=O)c1ccc(OC)c(OC)c1
  95	-1.1	i	0.78	-16	81	2
Cc1ccc(C)n1CCN1CCN(C(=O)c2ccc(Cl)cc2)CC1
  121	/	i	0.97	/	/	/
CCN(CC)CCN(C(=O)c1ccc(N2C(=O)CCC2=O)cc1)c1nc2cc3c(cc2s1)OCO3
  102	/	i	1	/	/	7
CCn1c(-c2ccc([N+](=O)[O-])cc2)n[nH]c1=S
  99	-0.6	i	1.1	-4	89	-19
CCOC(=O)Cc1nnc(NC(=O)COc2ccc(F)cc2)s1
  103	0.1	i	1.2	-40	149	-6
CCCCNC(=O)c1cc2c(=O)n3cccc(C)c3nc2n(Cc2ccccc2)c1=N
  95	7.7*	/	/	-6	101	-10
CCOC(=O)CCSc1nc(C)c2cc(C)c(C)cc2n1
  /	-2.1	i	0.83	-5	144	9
COC(=O)c1cc2sccc2n1CC(=O)Nc1cc(OC)cc(OC)c1
  107	-1.1	i	0.91	/	/	1
CCOC(=O)NCCc1c(C)nc2c(c(C)nn2C(C)(C)C)c1C
  103	0.9	i	0.75	/	/	1
O=C(COC(=O)c1cccnc1Cl)Nc1ccc2c(c1)OCO2
  99	/	i	1	29	108	-2
CC(C)Oc1cccc(C(=O)C2CCCN(S(=O)(=O)C(C)C)C2)c1 (centres undefined)
  106	/	i	1	/	/	-4

GALR2 ag: hit marks shown above.
SMILES	RGS16-Gao	GALR2 ag	HSV replic up	HSV replic up primary fold	PKD1 inh
CCCCNC(=O)c1cc2c(=O)n3cccc(C)c3nc2n(Cc2ccccc2)c1=N	95	7.7*	/	/	-10

5 compounds drawn at random from those above:
Below each SMILES: RGS16-Gao	GALR2 ag	HSV replic up	HSV replic up primary fold	INS promoter inh	INS promoter inh cell count	PKD1 inh
CS(=O)(=O)Nc1ccc(C(=O)N2CCCC2)cc1
  101	-2.1	i	1.1	-63	131	3
Cn1nc(OC(=O)Nc2ccccc2)cc1C(F)(F)F
  101	-1.0	i	1.1	22	63	-2
Cc1cc(C(C#N)c2ccccc2F)n2ncnc2n1 (centres undefined)
  111	/	i	0.83	/	/	-9
CCS(=O)(=O)N1CCC(C(=O)NCc2cccc(OC)c2)CC1
  33	-3.1	/	/	/	/	6
Cc1cc(NC(=O)Cn2cnc3c2c(=O)n(C)c(=O)n3C)n(-c2ccccc2)n1
  101	-1.1	i	0.87	-30	99	-7

(continued)
Below each SMILES: RGS16-Gao	GALR2 ag	HSV replic up	HSV replic up primary fold	INS promoter inh	INS promoter inh cell count	PKD1 inh
COc1cccc2cc(C(=O)C3=C(O)C(=O)N(Cc4ccco4)C3c3cccnc3)oc12 (centres undefined)
  100	0.6	i	0.98	-28	130	4
O=C(c1cccc(Cl)c1)c1nn(-c2ccccc2)c(=O)cc1C(F)(F)F
  101	-3.8	i	0.61	-22	176	-12
COc1cccc(N(CC(=O)Nc2cccnc2)S(C)(=O)=O)c1
  100	/	i	0.9	44	127	-6
COc1ccc(C/C(C)=N/NC(=S)Nc2ccc(C(C)C)cc2)cc1
  98	-2.8	i	1	-3	126	3
CN(C)S(=O)(=O)c1ccc(NC(=O)c2ccccn2)cc1
  111	-4.1	i	0.82	-30	151	1
CC(C)c1ccc(N(C(=O)c2csnn2)C(C(=O)NC(C)(C)C)c2cccnc2)cc1 (centres undefined)
  104	/	i	0.99	-50	122	-4
CC(C)(C)NC(=O)CSc1nccn1Cc1ccccc1
  101	-1.4	i	1.1	20	112	-8

High-throughput results (PubChem BioAssay)
